# From PubChem
# gsp antag = gsp mutant antagonism | actives 0.4% (n = 340,000) | Potency, µM (top dose mostly 76.9 µM), inactives show top-dose activity change, negative = inhibition, most hits filed as inhibitors | gsp-mutant cells, cAMP HTRF, 30 min; control for the full effect not named in the record; active = falling curve of any shape with a large fitted effect; inconclusive = falling curve, mostly with a smaller effect; inactive = flat or rising curve; cell line not stated here;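 further: intracellular cAMP measured with PDE inhibitor Ro 20-1724 present during compound exposure; potency means the concentration at half of the fitted maximal effect; on the % scale 0 is the no-effect control and ±100 the full control effect; nearly all actives have a fitted effect of over 65% in size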
#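 Cells in G418 medium, seeded 16-24 h, 37C; buffer exchange to DPBS + 1 mM CaCl2, 0.5 mM MgCl2, 0.05% BSA; cpds in DMSO + […] (300 uM stock), 30 min 37C; HTRF cAMP detection.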
# Menin-MLL FL inh = inhibitors of human menin-MLL interaction, wild-type MLL peptide. Fluorescence polarization, fluorescein-MLL peptide displacement from menin. FP activity change, % at 61.4 µM. 290,000 tested, under 10 active. AID 1766; inconclusive = falling polarisation curve, or a change in total fluorescence; inactive = total fluorescence flat and polarisation flat or rising; no compound was filed as active; the % refers to the polarisation; negative = inhibition;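 further: % of control where 0% means no effect; inhibitors lower the polarisation; unlabelled MLL peptide was the positive control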
# TRPML1 agonist = activates the human TRPML1 channel; activation, % (concentration not given with the values); actives 0.12% (n = 410,000); TRPML1-expressing cells, Ca2+ dye fluorescence, FDSS; host cell line not named in the record; reference of the full effect not given here; in the data active = activation above about 50%; inconclusive = about 30% to 50%; inactive = below about 30%; further: 0% is about no effect; the text of the record puts the active cut at 80%
# Target sequence (Q9GZU1 whole entry, looked up): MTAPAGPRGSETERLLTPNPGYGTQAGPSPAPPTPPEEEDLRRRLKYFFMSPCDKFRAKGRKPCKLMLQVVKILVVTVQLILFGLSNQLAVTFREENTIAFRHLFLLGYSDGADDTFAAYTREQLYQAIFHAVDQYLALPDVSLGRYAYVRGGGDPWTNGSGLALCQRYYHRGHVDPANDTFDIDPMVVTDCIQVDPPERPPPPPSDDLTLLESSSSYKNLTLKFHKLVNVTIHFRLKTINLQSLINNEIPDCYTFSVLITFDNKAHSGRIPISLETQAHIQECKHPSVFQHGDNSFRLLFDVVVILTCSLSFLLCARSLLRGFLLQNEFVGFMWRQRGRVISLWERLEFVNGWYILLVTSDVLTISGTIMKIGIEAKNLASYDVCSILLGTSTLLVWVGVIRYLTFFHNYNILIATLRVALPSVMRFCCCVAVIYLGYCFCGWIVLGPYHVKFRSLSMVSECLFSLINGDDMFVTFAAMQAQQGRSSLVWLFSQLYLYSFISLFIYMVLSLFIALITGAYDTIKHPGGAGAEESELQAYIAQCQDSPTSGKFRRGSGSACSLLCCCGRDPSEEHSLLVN
#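 Tetracycline-induced TRPML1-DL cells are seeded and incubated overnight before loading with a no-wash Ca2+ dye and quencher. Agonist activity is taken from the 110 s fluorescence read following compound pin-transfer on an FDSS, before EC80 54-4 challenge.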
# TRPML1 inh = inhibitors of human TRPML1 channel. actives 0.02% (n = 390,000). activity change, negative = inhibition, % (concentration not given with the values). AID 624415. TRPML1-inducible cells, Ca2+ dye fluorescence, FDSS; stronger effect = lower value; inhibition of EC80 agonist-evoked calcium signal; in the data active means activity change below about -50%; inconclusive means about -30% to -50%; inactive means above about -30%;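 further: stimulus is agonist 54-4 at its EC80 concentration; on the % scale 0 is the no-effect control and ±100 the full control effect; compound concentration not given in the record; the text of the record puts the active cut at -80%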
#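 Calcium fluorescence in TRPML1-DL cells induced overnight with Tet: a 110 s read after compound pin addition, then a 110 s antagonist read after challenge with 54-4 at 4 uM final (EC80).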
# ClpP mod = qHTS Assay for Activators of ClpP; actives 1.9% (n = 340,000); Potency, µM (doses to about 57.5 µM), for the others: at the top dose activity change, negative = active; purified B. subtilis ClpP, FRET peptide cleavage, 20 min; ATP-dependent Clp protease proteolytic subunit (Bacillus subtilis (strain 168)), P80244; active = well fitted falling curve with a large enough effect; inconclusive = small, poorly fitted or top-dose-only effect; inactive = no such curve, though single readings can be large or run the other way; further: potency means the concentration at half of the fitted maximal effect; the source files actives as falling curves though it sought activators and does not explain the sign; nearly all actives have a fitted effect of over 65% in size; many hits overshoot -100%
# Target sequence (P80244 whole entry, looked up): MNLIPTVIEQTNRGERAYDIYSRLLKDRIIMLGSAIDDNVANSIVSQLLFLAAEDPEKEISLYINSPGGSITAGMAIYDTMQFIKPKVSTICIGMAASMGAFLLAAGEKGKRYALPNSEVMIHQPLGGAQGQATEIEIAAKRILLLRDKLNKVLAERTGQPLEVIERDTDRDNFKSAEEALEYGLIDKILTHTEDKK
#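 Buffer: 100 mM Tris/HCl pH8, 100 mM KCl, 0.05% low protease BSA, 2.5% glycerol, 0.01% Tween-20. ClpP 10 microg/mL final; 20 min RT; delta FRET normalized to ADEP and DMSO controls.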
# gsp agonist = agonists of gsp mutant (McCune-Albright syndrome) | Potency, µM (doses to about 76.9 µM), for inactives: top-dose activation (cAMP increase), actives largely listed as activators | gsp mutant cells, cAMP HTRF, 30 min; control for the full effect not named in the record | actives 0.13% (n = 340,000); active = well fitted activation curve with a large enough effect; inconclusive = small, poorly fitted or top-dose-only effect, or another doubt; inactive = no such curve, though single readings can be large or run the other way; cell line not stated here;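 further: phosphodiesterase inhibitor Ro 20-1724 added with compounds to block cAMP breakdown; potency means the concentration at half of the fitted maximal effect; nearly all actives have a fitted effect of over 60% in size; about a fifth of the inactives were tested at one dose only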
#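 Cells in DMEM/10% FBS with G418 were pretreated with compounds in DMSO plus […] (300 uM stock) for 30 min at 37C. cAMP was measured by HTRF (cAMP-d2 plus anti-cAMP antibody-K) after 30 min at room temperature.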
# An asterisk follows results filed as active; ? = inconclusive; . = not tested or not shown; & = joins results of further samples; [ ] = dose if it differs, or a comment.
# Value order: gsp antag, Menin-MLL FL inh, TRPML1 agonist, TRPML1 inh, ClpP mod, gsp agonist
Cc1nc2ccccc2nc(=O)c1NNc1ccccc1
    -13%, 3.3, 2.9&0.0, 8&-1, ., -16%[15.4 µM]
CC(C#N)Sc1ccc(S(=O)(=O)N2CCCC2)cn1 (centres undefined)
    9%, ., -0.1, -2, -0.9%, 11%
C=C(C)c1cccc(C(C)(C)NC(=O)N2CCN(CC(N)=O)CC2)c1
    -9%, 0.2, -0.1, -9, -2.9%, -22%
Cc1nn(-c2ccc(F)cc2)c(Cl)c1/C=C(/CC(=O)O)c1nc2ccccc2s1
    -20%, ., 0.9, 3, ., -21%
Cc1ccc(OCCn2cccn2)c(C)c1
    4%, 0.6, 1.0, 11, -2.0%, 26%
CSc1ccc(C2CC(=O)Nc3nc(SC)[nH]c(=O)c32)cc1 (centres undefined)
    1%, 0.7, -0.2, 10, ., -2%[15.4 µM]
COc1ccccc1NC(=O)CN(c1ccccc1C)S(C)(=O)=O
    5%, -3.5, 0.3, 12, -1.8%, -15%[15.4 µM]
Cc1ccccc1C(=O)Oc1c(Sc2ccccc2)c(C)nn1C(C)(C)C
    ., ., 0.2, 5, 1.0%, .
CCCCNC(=O)COn1nnc2ccc(S(=O)(=O)N3CCOCC3)cc21
    4%, ., 0.1, -3, 1.6%, -45%[inhibitor]
C=CCNC(=S)NNC(=O)C(CCC(C)C)CC(C)(C)O (centres undefined)
    15%, 3.9, 3.7, 3, -0.3%, 0%
O=C(Cc1ccccc1F)NC1CCSc2ccccc21 (centres undefined)
    0%, ., 0.0, 21, -1.4%, -18%
NC(=O)[C@@H]1CCCCNc2c(F)cc([N+](=O)[O-])cc2C(=O)N[C@@H](CC(=O)O)C(=O)N[C@@H](CCC(=O)O)C(=O)N1
    10%, -1.1, -1.0, -5, 1.2%, .
COc1ccc(CNC(=O)C2CCCC2)cc1
    9%, ., 0.6, -18, ., -9%
O=C(c1ccc(F)cc1)N1CCN(C(=O)c2cccnc2)CC1
    10%, -2.9, 1.4, -25, 2.2%, -12%
COc1ccc(C(=O)NCCc2csc(-c3ccc(Cl)cc3)n2)cc1
    ., ., 0.6, 8, -17%, .
N#CCN1C(=O)C(=O)N(Cc2cccc(C(F)(F)F)c2)C1=O
    9%, 5.4, 0.0, -1, ., ?
O=S(=O)(NCCOc1ccccc1F)c1ccc(Cl)cc1F
    5%, ., 2.4, -12, 0.4%, 2%
CC(=O)NC(=S)NNC(=O)COc1ccc([N+](=O)[O-])cc1
    6%, -0.6, 0.5, -6, ., 5%[15.4 µM]
O=C(c1ccc(F)cc1)N1CCC(O)(c2cccnc2)CC1
    11%, 0.4, -0.2, -4, -1.1%, 16%
Cc1c(Cl)cnc(NC(=O)COC(=O)C2CC2)c1Cl
    0%, ., -0.8, 14, -2.7%, ?
CC(CC#CCN1CCOCC1)OCCC#N (centres undefined)
    15%, 1.3, -1.1, -6, -0.4%, -20%
CC(O)CNc1nc2sc3c(c2c(=O)n1CCc1ccccc1)CCCCC3 (centres undefined)
    ?, 0.5, -0.4, -6, ., -25%
CCCC(=O)Nc1nn(C)c2nc3ccc(C)cc3cc12
    -12%, -4.9, -0.6, -9, -10%, 3%
CCOc1ccc(-c2c(C(=O)N/N=C/c3cccc(Br)c3)nnn2-c2nonc2N)cc1
    -7%, ., 0.0, -1, ?, -25%
COC(=O)CSc1nc(C)c2ccc(OC)cc2n1
    -12%, -2.2, 2.5, 1, 25µM*, 13%
COc1ccc(CC(=O)OCn2nnc3ccccc3c2=O)cc1
    14%, -0.2, -0.6, 1, 1.8%, 6%
Cn1cc2cc([N+](=O)[O-])ccc2n1
    3%, 1.0, 0.6, 15, ., 1%[15.4 µM]
COc1ccc(S(=O)(=O)N2CC(=O)Nc3ccccc32)cc1C
    4%, 4.1, 1.3, -6, 0.0%, -15%
O=c1cc(CN2CCN(c3cccc(C(F)(F)F)c3)CC2)nc2sccn12
    -5%, 3.6, 1.6, -2, -7.3%, -50%[inhibitor]
CC(C)(C)OC(=O)N1CCC(c2c(C(=O)Nc3cccc(C(F)(F)F)c3)cnn2-c2ccc(F)cc2F)CC1
    ., ., 1.6, 0, -13%, .
Cc1ccc([C@H]2C[C@@H](n3cc(COC(=O)c4ccccc4)nn3)[C@H](O)CN2C(=O)C2CCCCC2)cc1
    ., ., 0.8, 4, -1.3%, -91%[inhibitor]
Cc1ccc(NC(=O)CN(C)C(=O)Cc2ccc3c(c2)CCC3)cc1
    -2%, ., 1.2, 6, 1.1%, ?
Nc1cccc(/C=C/C(=O)O)c1
    9%, 3.0, ., ., -3.0%, -1%
Cc1ccc(S(=O)(=O)Oc2ccc(/C=N/N=C3/NC(=O)C(CC(=O)O)S3)cc2)cc1[N+](=O)[O-] (centres undefined)
    10%, ., 0.0, -5, 1.5%, -6%
CCCN(CC(=O)Nc1ccccc1C)C(=O)Cc1coc2cc(C)ccc12
    -3%, ., 0.0, -5, -3.6%, -21%
CCCCN(C(=O)C1CCCC1)c1c(N)n(CC(C)C)c(=O)[nH]c1=O
    12%, ., 0.5, 2, -2.8%, 27%
CCC(=O)N1CCc2cc(Br)cc(S(=O)(=O)CCC(=O)N3CCN(c4ccccc4OC)CC3)c21
    ., ., -0.8, -11, -2.3%, .
CC(=O)/C=C/c1ccccc1O
    11%, -3.3, -0.7, 3, 1.2%, -8%
Cc1cccc(C)c1NC(=O)CSc1nc(N2CCOCC2)nc(N2CCOCC2)n1
    16%, ., 0.1, 14, 2.5%, -10%
c1ccc(CNc2ncnc3[nH]ncc23)cc1
    -9%, ., 0.5&-0.1, 16&29, -16%, 15%
COc1cc(NC(=O)c2c(F)c(F)c(F)c(F)c2F)c(OC)cc1Cl
    7%, 3.9, 2.6, -3, 0.9%, 27%
C/C(=N\NC(=S)NCCc1ccccc1)c1cccs1
    -4%, 2.8, 1.2, -7, -3.2%, -14%
COc1ccc(C)cc1NC(=O)c1ccccc1N(C)S(=O)(=O)c1ccccc1
    ?, 50[activator], 2.4, 40, -2.4%, -5%
CCC1Sc2ccc(S(=O)(=O)CCC(=O)NC3CCCCCC3)cc2NC1=O (centres undefined)
    -4%, -4.3, 0.2, -1, -2.0%, 15%
N#Cc1ccccc1S(=O)(=O)Nc1ccc2c(c1)OCCO2
    8%, -1.2, -0.3, 11, 0.0%, -4%[15.4 µM]
Cc1ccc(/C=N/n2cnc3sc(C)c(C)c3c2=O)o1
    1%, -0.3, -0.2, -5, ., -2%[15.4 µM]
COC(=O)C1=C(C)N(CCCC(=O)O)C(=O)NC1c1ccc(C(F)(F)F)cc1 (centres undefined)
    4%, -1.0, -0.5, -10, 1.6%, .
COCc1cc(C)nc2sc3c(c12)NC(c1ccccc1C(=O)O)N(c1cccc(C(F)(F)F)c1)C3=O (centres undefined)
    ., ., 0.4, 3, -16%, .
Cc1ccc2nc(CSc3nnc(NC(=O)C(C)C)s3)cc(=O)n2c1
    ., ., -0.3, -1, -11%, .
O=C(CNC(=O)c1cccnc1)N/N=C/c1cccnc1
    5%, 8.5, 0.1, 25, ., -1%
NC(=O)NC(=O)CN1c2cccc3cccc(c23)S1(=O)=O
    -8%, 4.9, 0.7, 25, ., ?
Cc1ccc(S(=O)(=O)N2CCN(C(=O)c3ccc(-n4cncn4)c([N+](=O)[O-])c3)CC2)cc1
    -13%, ., -0.7, -3, 0.4%, -13%
O=C(c1ccc(Oc2ccccc2)cc1)C1CCCN(C(=O)c2cnccn2)C1 (centres undefined)
    -16%, -0.3, 1.3, -1, ., 2%[15.4 µM]
OCC1OC(n2ccc3c(NO)ncnc32)C(O)C1O (centres undefined)
    ?, ., -0.1, -22, -13%, -11%
COc1ccc(/C=C(\NC(=O)c2cccs2)C(=O)Nc2cccc3ccccc23)cc1OC
    -14%, 2.8, 0.3, -9, 0.2%, 4%[15.4 µM]
CCOc1nc2cnccc2n(CC(=O)Nc2ccccc2F)c1=O
    -4%, ., 5.4, 42, 2.7%, ?
COc1ccc(CCNC(=O)c2ccc3c(c2)nc2n3CCC(C)C2)cc1OC (centres undefined)
    ., ., 0.8, -13, 1.2%, .

# A draw from above in order of length of the SMILES, descending:
# Value order: gsp antag, Menin-MLL FL inh, TRPML1 agonist, TRPML1 inh, ClpP mod, gsp agonist
Cc1ccc(S(=O)(=O)N2CCN(C(=O)c3ccc(-n4cncn4)c([N+](=O)[O-])c3)CC2)cc1
    -13%, ., -0.7, -3, 0.4%, -13%
COCc1cc(C)nc2sc3c(c12)NC(c1ccccc1C(=O)O)N(c1cccc(C(F)(F)F)c1)C3=O (centres undefined)
    ., ., 0.4, 3, -16%, .
COc1ccc(/C=C(\NC(=O)c2cccs2)C(=O)Nc2cccc3ccccc23)cc1OC
    -14%, 2.8, 0.3, -9, 0.2%, 4%[15.4 µM]
COC(=O)C1=C(C)N(CCCC(=O)O)C(=O)NC1c1ccc(C(F)(F)F)cc1 (centres undefined)
    4%, -1.0, -0.5, -10, 1.6%, .
COc1ccc(C)cc1NC(=O)c1ccccc1N(C)S(=O)(=O)c1ccccc1
    ?, 50[activator], 2.4, 40, -2.4%, -5%
O=C(c1ccc(Oc2ccccc2)cc1)C1CCCN(C(=O)c2cnccn2)C1 (centres undefined)
    -16%, -0.3, 1.3, -1, ., 2%[15.4 µM]
COc1ccc(CCNC(=O)c2ccc3c(c2)nc2n3CCC(C)C2)cc1OC (centres undefined)
    ., ., 0.8, -13, 1.2%, .
COc1cc(NC(=O)c2c(F)c(F)c(F)c(F)c2F)c(OC)cc1Cl
    7%, 3.9, 2.6, -3, 0.9%, 27%
Cc1ccc2nc(CSc3nnc(NC(=O)C(C)C)s3)cc(=O)n2c1
    ., ., -0.3, -1, -11%, .
NC(=O)NC(=O)CN1c2cccc3cccc(c23)S1(=O)=O
    -8%, 4.9, 0.7, 25, ., ?
CCOc1nc2cnccc2n(CC(=O)Nc2ccccc2F)c1=O
    -4%, ., 5.4, 42, 2.7%, ?
Cc1ccc(/C=N/n2cnc3sc(C)c(C)c3c2=O)o1
    1%, -0.3, -0.2, -5, ., -2%[15.4 µM]
O=C(CNC(=O)c1cccnc1)N/N=C/c1cccnc1
    5%, 8.5, 0.1, 25, ., -1%
C/C(=N\NC(=S)NCCc1ccccc1)c1cccs1
    -4%, 2.8, 1.2, -7, -3.2%, -14%
c1ccc(CNc2ncnc3[nH]ncc23)cc1
    -9%, ., 0.5&-0.1, 16&29, -16%, 15%
